UCH37 inh – inhibitors of human UCH37 deubiquitinase, primary screen, biochemical, Ub-AMC cleavage, fluorescence; 0.33% of 330,000 active; inhibition, % (test concentration not listed); Ubiquitin carboxyl-terminal hydrolase isozyme L5 (Homo sapiens), Q9Y5K5; purified proteasome/UCH37;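 active = mean of two replicates above 20%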;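 also: 0% = compound-free wells with enzyme and 100% = wells lacking proteasome; stock transfer was 100 nL into about 20 µL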
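system = Proteasome-associated human UCH37 deubiquitinase | amount = 0.15 nM proteasome as dispensed | medium = pH 7.4 Tris-HCl (50 mM) with ovalbumin, ATP-MgCl2, DTT | incubation = 30 min preincubation with enzyme, 25 min cleavage at room temperature | detection = AMC fluorescence 355/460 nm | read-out basis = percent inhibition | controls = no-proteasome and no-compound wells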
B2AR ag – beta2AR agonists driving receptor internalization, primary screen, cell-based, FAP fluorogen, flow cytometry | AID 504454, 2011 | Beta-2 adrenergic receptor (Homo sapiens), P07550 | 0.43% of 340,000 active | Am2.2-beta2AR cells; reference of the scale not given here | response, % (no concentration beside the values);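 active = response above a set limit, near 3 SD of response in nonfluorescent compounds, cut at about 42% in these data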;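 also: stock transfer was 100 nL into about 11 µL; a reference agonist was the positive control; negative values mostly stem from fluorescent compounds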
LANA-H2B inh – blockers of LANA interaction with H2A/H2B – biochemical, FP readout, HTS, primary screen; inhibition, % (no concentration beside the values); cell-free LANA-H2A/H2B peptide, fluorescence polarization; 0.6% of 320,000 active; in the data active = inhibition mostly above about 10%, no sharp cut-off; inactive = mostly below about 6.7%;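 also: stock transfer was 7.5 nL into about 10 µL; 0% = median of vehicle wells and 100% = median of positive control wells; one replicate is shown; the record names a cut of 25% in any replicate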
Ecoli growth – E. coli growth inhibition, primary screen, OD600 | Escherichia coli growth, 23 h; hits give low values | OD600 absorbance (no concentration beside the values) | 0.21% of 330,000 active;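 active = OD600 absorbance below the run mean of sample wells minus 3.6 SD, in any replicate, cut at about 0.56 in these data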;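 also: stock transfer was 300 nL into about 60 µL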
HNF4A DNA FP – change in binding of human HNF4A to DNA, primary screen, biochemical, fluorescence polarization, FITC-DNA | activity change, % at 10 µM | Hepatocyte nuclear factor 4-alpha (Homo sapiens), P41235 | 0.3% of 360,000 active | 1 h; in the data active = activity change above about 30%, passing the limit was not always enough;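 also: controls were the assay level and a saturating level of protein; the project sought stronger binding though the title names inhibitors; some compounds called inactive have numbers as strong as hits; positive values seem to mean higher polarization but the record does not say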
Target sequence (P41235 whole entry, looked up): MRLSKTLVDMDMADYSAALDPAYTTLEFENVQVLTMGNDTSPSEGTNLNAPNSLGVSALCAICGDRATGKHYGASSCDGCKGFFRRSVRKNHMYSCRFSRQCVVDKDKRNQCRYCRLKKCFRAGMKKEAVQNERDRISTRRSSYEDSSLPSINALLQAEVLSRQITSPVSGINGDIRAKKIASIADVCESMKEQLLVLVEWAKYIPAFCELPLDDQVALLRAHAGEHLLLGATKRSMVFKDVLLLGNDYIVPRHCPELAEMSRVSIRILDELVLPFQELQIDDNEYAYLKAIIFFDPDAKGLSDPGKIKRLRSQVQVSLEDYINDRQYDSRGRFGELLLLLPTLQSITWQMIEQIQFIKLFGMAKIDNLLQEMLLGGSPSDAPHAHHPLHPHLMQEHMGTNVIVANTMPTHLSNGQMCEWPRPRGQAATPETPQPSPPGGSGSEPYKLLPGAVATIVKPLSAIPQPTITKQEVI
FGF22 binding – binders of human FGF22 protein, primary screen, FGF22 synaptogenesis inhibitor project, biophysical, thermal shift, single point | 1.5% of 340,000 active | calls only at 9.99 µM | recombinant FGF22 thermal shift, SYPRO orange fluorescence; percent of sucrose octasulfate shift, DMSO zero | Fibroblast growth factor 22 (Homo sapiens), Q9HCT0;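 active = melting point raised past a set limit in the mean and every replicate; three in four hits are not shown here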
Target sequence (Q9HCT0 whole entry, looked up): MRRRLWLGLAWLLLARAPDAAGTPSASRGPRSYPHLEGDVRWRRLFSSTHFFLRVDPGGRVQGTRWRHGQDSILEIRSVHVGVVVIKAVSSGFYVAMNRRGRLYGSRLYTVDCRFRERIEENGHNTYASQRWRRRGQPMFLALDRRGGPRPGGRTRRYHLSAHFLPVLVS
ALR inh – inhibitors of human ALR sulfhydryl oxidase, primary screen, biochemical, H2O2 detection, HRP-luminol luminescence, single point | 3.8% of 290,000 active | purified ALR, DTT oxidation | inhibition, % (test concentration not listed) | FAD-linked sulfhydryl oxidase ALR (Homo sapiens), P55789;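 active = mean and each replicate at 75% or more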;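 also: stock transfer was 7.5 nL into about 7.5 µL; 0% = neutral wells and 100% = wells with inactivated enzyme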
Target sequence (P55789 whole entry, looked up): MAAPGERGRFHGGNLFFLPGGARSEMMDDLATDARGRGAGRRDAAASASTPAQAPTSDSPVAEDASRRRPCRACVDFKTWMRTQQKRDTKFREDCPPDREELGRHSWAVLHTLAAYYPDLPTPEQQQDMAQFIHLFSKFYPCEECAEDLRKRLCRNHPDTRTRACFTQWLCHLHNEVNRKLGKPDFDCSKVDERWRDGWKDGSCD
Numbers without * were called inactive; i = inactive; · = not tested or not shown. An excerpt; count on the stated rates, not on these rows.

The line under a structure holds: UCH37 inh	B2AR ag	LANA-H2B inh	Ecoli growth	HNF4A DNA FP	FGF22 binding	ALR inh
- CCCNCCC(c1ccco1)c1ccccc1OC (centres undefined)
→ 1.5	-4	-1.0	0.64	1.2	·	-5
- Cc1cc(C)cc(NC(=O)C(=O)NCCCN2CCCC2=O)c1
→ 0.4	1	-1.8	0.67	2.0	i	-2
- COc1ccc(/C=C/c2nc(-c3ccccc3O)n[nH]2)cc1OC
→ -4.9	10	1.3	0.64	1.8	·	19
- COC(=O)c1ccc(CSc2nc(N)cc(N)n2)cc1
→ 1.1	8	-2.7	0.64	-2.4	·	47
- CCc1ccc(C(=O)NCc2cccs2)s1
→ 1.6	-7	-0.2	0.67	0.5	·	4
- COc1ccc(NC(=O)/C(C#N)=C\c2cc(C)n(-c3ccc(Oc4ccc([N+](=O)[O-])cn4)cc3)c2C)cc1
→ 0.3	-2	3.2	0.76	2.2	·	-1
- Fc1ccc(-n2nnc(-c3nccs3)n2)cc1
→ 4.9	-9	-4.2	0.64	3.6	i	0
- CN(C)c1c(F)cc(C(=O)NC(=O)NCc2cccnc2)cc1F
→ 4.7	0	-2.1	0.7	-1.3	i	-9
- COc1ccccc1NC(=O)CSc1nnc(C2CCCCC2)n1N
→ 1.7	-1	-3.6	0.72	5.4	i	-7
- COC(=O)c1ccc(NC(=O)C(OC)c2ccccc2)cc1 (centres undefined)
→ 3.9	4	-2.1	0.67	0.1	i	·
- Cn1c(SCC(=O)Nc2cccnc2Cl)nc2ccccc21
→ 0.9	2	0.8	0.62	4.0	i	-13
- CCOC(=O)Cc1cc(OC)c(OC)cc1Cc1cc(OC)c(OC)cc1CC(=O)OCC
→ 1.7	-4	2.8	0.67	-6.7	·	-3
- O=C(COc1ccc(Cl)cc1)N1CCN(c2ncccn2)CC1
→ -1.7	-1	2.6	0.77	-3.7	·	-5
- CCOCCCN(C(=O)c1snc(C(N)=O)c1N)C(C(=O)NC1CCCC1)c1ccc(O)cc1 (centres undefined)
→ -39	-4	-0.9	0.7	1.6	i	·
- COc1ccccc1-c1nc(C#N)c(N2CCC(Cc3ccccc3)CC2)o1
→ -17	6	-3.9	0.72	-3.4	·	1

Record cards (already shown).
Profile of `COc1ccc(NC(=O)/C(C#N)=C\c2cc(C)n(-c3ccc(Oc4ccc([N+](=O)[O-])cn4)cc3)c2C)cc1` = UCH37 inh = 0.3; B2AR ag = -2; LANA-H2B inh = 3.2; Ecoli growth = 0.76; HNF4A DNA FP = 2.2; FGF22 binding = ·; ALR inh = -1
Profile of `Cn1c(SCC(=O)Nc2cccnc2Cl)nc2ccccc21` = UCH37 inh = 0.9; B2AR ag = 2; LANA-H2B inh = 0.8; Ecoli growth = 0.62; HNF4A DNA FP = 4.0; FGF22 binding = i; ALR inh = -13

Further results follow:
The line under a structure holds: UCH37 inh	B2AR ag	LANA-H2B inh	Ecoli growth	HNF4A DNA FP	FGF22 binding	ALR inh
- CCN(CC)c1ccc(NC(=O)c2ccccc2)cc1S(=O)(=O)Nc1ccccc1OC
→ -1.2	7	3.2	0.69	-1.8	i	-7
- Nc1nc(NC(=O)CCCC(=O)O)nn1-c1ccccc1
→ -2.2	6	1.7	0.78	0.0	·	-9
- Cc1ccc(NC(=O)C2CC(=O)N(C(C)C)C2)cc1Cl (centres undefined)
→ 0.5	-5	3.8	0.71	5.6	i	·
- CC1CC(=O)N(CC(=O)Nc2ccc(Br)cc2)c2ccccc2S1(=O)=O (centres undefined)
→ 2.7	-5	-3.4	0.67	1.3	i	1
- CCOc1ccc(NC(=O)Cn2c(=O)oc3ccccc32)cc1
→ 30*	-6	2.4	0.65	-1.5	·	2
- COc1cc(OC)cc(/C(N)=N/O)c1
→ 0.9	9	1.5	0.63	1.3	i	4
- COc1cccc(C(C)NC(=O)c2ccncc2)c1 (centres undefined)
→ 4.7	3	10	0.66	-11	i	-1
- Cc1ccccc1OCC(=O)NNC(=O)c1cc(S(=O)(=O)N(C)C)ccc1N1CCCC1
→ -1.3	14	-2.1	0.67	-1.4	i	-4
- CN(CC(=O)Nc1cccnc1Cl)S(=O)(=O)c1ccc(Cl)cc1
→ 5.3	6	5.1	0.7	-3.1	i	-1
- COc1ccccc1N1C(=O)C2C3CC(c4ccccc4)C(C3)C2C1=O (centres undefined)
→ ·	-23	-0.3	·	1.0	i	-3
- Cc1cc(C)cc(N(CCC#N)C(=O)COC(=O)c2ccc(OCc3c(C)noc3C)cc2)c1
→ 1.7	1	-3.0	0.68	-9.8	i	-4
- CCCCN1C(=O)C(O)=C(C(C)=O)C1c1ccccc1[N+](=O)[O-] (centres undefined)
→ 1.7	-2	-2.2	0.68	-2.5	i	-4
- CCOc1ccc(-c2noc(CCC(=O)NC3CCCC3)n2)cc1OC
→ 2.1	-4	-0.4	0.63	4.9	i	-2
- CCc1cc(C(=O)NCC(c2ccco2)N2CCCCC2)sc1C (centres undefined)
→ 2.9	-7	-11	0.66	1.9	i	32
- COc1ccccc1N1CCN(C2CCCN(C(=O)CN3CCCCC3=O)C2)CC1 (centres undefined)
→ 5.2	3	-2.7	0.68	-1.4	i	13

Additional entries follow.
The line under a structure holds: UCH37 inh	B2AR ag	LANA-H2B inh	Ecoli growth	HNF4A DNA FP	FGF22 binding	ALR inh
- CN(C1CCCCC1)S(=O)(=O)c1ccc(S(=O)(=O)N2CCCC2)cc1
→ 2.5	-11	5.4	0.69	0.3	i	-1
- Cc1ccc(S(=O)(=O)N2[C@@H](c3ccc(Br)cc3)C(C(=O)O)=CC[C@H]2c2cccc(C)c2)cc1
→ 1.4	5	·	0.66	-6.0	i	·
- CC(C)c1nc(SCC(=O)N2c3ccccc3CC2C)c2ccccc2n1 (centres undefined)
→ 3.2	-9	12	0.72	5.6	i	-5
- COc1cccc(Cn2nnc(C(=O)Nc3cc(Cl)ccc3OC)c2N)c1
→ 1.2	5	-7.2	0.75	2.9	i	·
- CC(Sc1nncs1)C(=O)Nc1ccc2c(c1)OCCO2 (centres undefined)
→ 0.8	-2	-0.9	0.64	-0.1	i	-2
- O=C1CCN(S(=O)(=O)c2ccccc2)CCN1CCOCc1ccc(F)cc1
→ 3.1	0	-0.5	0.65	-1.1	i	-7
- CN(C)CCNC(=O)c1ccc2c(c1)NC(=O)c1ccccc1S2
→ 1.4	5	-1.8	0.66	4.8	i	0
- Cc1ccc(Cn2nc(C)c(NC(=O)c3cc(-c4ccc5c(c4)OCO5)on3)c2C)cc1
→ 5.5	·	4.5	0.74	·	·	-8
- COc1ccc(C2NCCc3sccc32)cc1 (centres undefined)
→ 0.1	5	1.4	0.71	-0.5	i	-12
- CCC(C)(C)NC(=O)c1cc([N+](=O)[O-])ccc1N1CCCCC1
→ 10	-14	0.8	0.69	1.6	i	-1
- O=C(CCN1C(=O)/C(=C/c2ccc3c(c2)OCO3)SC1=S)NNC(=O)c1cccnc1
→ -5.4	4	-2.2	·	1.7	i	0
- Cc1ccc(C(=O)N/C(=C\c2ccc(-c3ccc(Br)cc3)o2)C(=O)NCCCN(C)C)cc1
→ -31	41	-1.9	0.5*	1.2	i	-5
- O=C(NC(=S)Nc1ccc(S(=O)(=O)N2CCCC2)cc1)c1cccs1
→ 2.2	-1	1.9	0.67	2.1	i	1
- CCC(=O)OCC(=O)Nc1ccc(OC)cc1[N+](=O)[O-]
→ 2.1	-5	0.8	0.72	3.2	i	-30
- O=C(NC(=S)NCCN1CCOCC1)c1ccc(Cl)cc1Cl
→ 1.0	-1	3.6	0.7	-2.0	·	-1

UCH37 inh: what is marked active above
Molecule,UCH37 inh,B2AR ag,LANA-H2B inh,ALR inh
CCOc1ccc(NC(=O)Cn2c(=O)oc3ccccc32)cc1,30*,-6,2.4,2

More records follow:
The line under a structure holds: UCH37 inh	B2AR ag	LANA-H2B inh	Ecoli growth	HNF4A DNA FP	FGF22 binding	ALR inh
- CS(=O)(=O)c1ccc(Cl)c(NC(=O)COC(=O)Cc2c[nH]c3ccccc23)c1
→ 1.8	-5	-1.7	0.63	0.5	i	-3
- COc1cccc(-c2noc(C3CCCN(C(=O)c4cccc(F)c4)C3)n2)c1 (centres undefined)
→ 1.1	3	-6.0	0.69	-4.2	i	8
- C=C(C)C1CC=C(C)/C(=N/NC(=O)COc2cccc3ccccc23)C1 (centres undefined)
→ ·	-13	4.4	·	3.2	·	-1
- CCOC(=O)c1ccc(Nc2ncnc3ccccc23)cc1
→ -50	-6	0.1	0.7	-0.2	i	5
- COc1cc(C(c2sc3nc(C)nn3c2O)N2CCC3(CC2)OCCO3)cc(OC)c1OC (centres undefined)
→ 0.0	-5	-4.1	0.73	2.8	·	2
- COc1ccc(CC(=O)N/N=C/C=C/c2ccc3c(c2)OCO3)cc1OC
→ ·	2	-5.0	·	3.3	i	-8
- CCOC(=O)c1cccc(C2=CC(=O)C[C@H](c3ccc(OC)c(OC)c3)C2)c1
→ 2.3	-6	2.2	·	-1.6	i	-2
- CC(C)C(=O)C1=Cc2cccc([N+](=O)[O-])c2OC1N1CCOCC1 (centres undefined)
→ 4.7	1	-0.5	0.65	0.3	i	-17
- Cc1cc(C(C)(C)C)cc(C)c1COC(=O)C1CCC(=O)N1 (centres undefined)
→ 1.9	-4	-4.3	0.7	3.8	·	0
- COc1ccccc1CNC(=O)c1ccccc1N(C)S(C)(=O)=O
→ 1.3	-2	-11	0.74	0.2	i	-8
- CCOC(=O)Cn1nc(C)n(-c2ccc(C(C)(C)C)cc2)c1=O
→ 3.2	51*	-0.8	0.65	1.6	·	-29
- O=C(N/N=C/c1cccc([N+](=O)[O-])c1O)c1cccs1
→ ·	-6	-3.7	·	-0.8	i	-19
- CC(C)C[C@H](NC(=O)N1CCn2c1nc1ccccc12)C(=O)NC1CC1
→ -1.7	-9	-7.4	0.64	-0.2	i	-11
- CC(C)C[C@H](NC(=O)C1CC(=O)N(c2ccc3c(c2)OCCO3)C1)C(=O)N1CCCCC1 (some centres undefined)
→ 0.3	2	-2.4	0.62	0.5	i	-16
- CN(C)/C=C(\C#N)S(=O)(=O)c1ccccc1
→ 1.6	-1	-2.7	0.71	-0.7	i	2

More compounds
The line under a structure holds: UCH37 inh	B2AR ag	LANA-H2B inh	Ecoli growth	HNF4A DNA FP	FGF22 binding	ALR inh
- c1ccc(CCn2nnnc2CN2CCN(C3CCCC3)CC2)cc1
→ 0.1	1	-0.1	0.66	2.5	·	2
- O=C(NCCc1cccs1)C12CN(Cc3ccccc3)CC1C(c1cccc([N+](=O)[O-])c1)=NO2 (centres undefined)
→ 0.9	2	0.6	0.72	0.7	i	0
- Cc1nc2cc(C(=O)NCCN3CCOCC3)ccc2n1-c1ccc(F)cc1F
→ 5.1	-4	·	0.75	8.0	·	·
- CCCCNC(=O)c1ccccc1C(=O)NC1(C(=O)NCCCC)CCCC1
→ 2.1	-3	·	0.67	2.0	i	·

Compound activity: PubChem BioAssay, several laboratories
